# High-throughput results deposited in PubChem by several laboratories.
# ALR inh – inhibitors of human ALR sulfhydryl oxidase, primary screen, biochemical, H2O2 detection, HRP-luminol luminescence, single point; purified ALR, DTT oxidation; inhibition, % (no concentration beside the values); 3.8% of 290,000 active;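 active means mean and each replicate at 75% or more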;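 further: stock transfer was 7.5 nL into about 7.5 µL; 0% = neutral wells and 100% = wells with inactivated enzyme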
# rRNA inh HTS – reduced GFP signal of wild-type E. coli, primary screen, bacterial rRNA inhibitor project, GFP/RFP fluorescence, OD600, single point. E. coli WT GFP vs humanized-ribosome RFP mutants, 24 h; stronger effect = lower value; DMSO median 0, no signal -100. GFP signal change (wild-type ribosome), % (no concentration beside the values). 1.6% of 350,000 active. AID 720706, 2013;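 active means significant combined selectivity score with lowered wild-type GFP, culture density cut under 30%, mutant RFP and density less affected; inactive means any of these conditions unmet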; further: one replicate is shown; some compounds called inactive have numbers as strong as hits
# B2AR ag – beta2AR agonists driving receptor internalization, primary screen, cell-based, FAP fluorogen, flow cytometry; Beta-2 adrenergic receptor (Homo sapiens), P07550; Am2.2-beta2AR cells; reference of the scale not given here; response, % (test concentration not listed); 0.43% of 340,000 active; AID 504454, 2011;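 active means response above a set limit, near 3 SD of response in nonfluorescent compounds, cut at about 42% in these data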;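 further: stock transfer was 100 nL into about 11 µL; a reference agonist was the positive control; negative values mostly stem from fluorescent compounds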
# E coli growth – E. coli growth inhibition, primary screen, OD600. OD600 absorbance (concentration not given with the values). AID 1053175, 2014. Escherichia coli growth, 23 h; stronger effect = lower value. 0.21% of 330,000 active;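 active means OD600 absorbance below the run mean of sample wells minus 3.6 SD, in any replicate, cut at about 0.56 in these data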;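 further: stock transfer was 300 nL into about 60 µL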
# FGF22 binding – binders of human FGF22 protein, primary screen, FGF22 synaptogenesis inhibitor project, biophysical, thermal shift, single point. Fibroblast growth factor 22 (Homo sapiens), Q9HCT0. recombinant FGF22 thermal shift, SYPRO orange fluorescence; percent of sucrose octasulfate shift, DMSO zero. calls only at 9.99 µM. 1.5% of 340,000 active;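 active means melting point raised past a set limit in the mean and every replicate; three in four hits are not shown here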
# Target sequence (Q9HCT0 whole entry, looked up): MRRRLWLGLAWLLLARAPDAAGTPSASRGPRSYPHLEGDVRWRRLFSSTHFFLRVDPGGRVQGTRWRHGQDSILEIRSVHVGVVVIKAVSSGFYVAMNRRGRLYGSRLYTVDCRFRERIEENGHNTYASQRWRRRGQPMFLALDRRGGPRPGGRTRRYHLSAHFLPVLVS
# HNF4A DNA FP – change in binding of human HNF4A to DNA, primary screen, biochemical, fluorescence polarization, FITC-DNA. Hepatocyte nuclear factor 4-alpha (Homo sapiens), P41235. 1 h. activity change, % at 10 µM. 0.3% of 360,000 active. AID 1224865, 2016; in the data active means activity change above about 30%, passing the limit was not always enough;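 further: controls were the assay level and a saturating level of protein; the project sought stronger binding though the title names inhibitors; some compounds called inactive have numbers as strong as hits; positive values seem to mean higher polarization but the record does not say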
# Target sequence (P41235 whole entry, looked up): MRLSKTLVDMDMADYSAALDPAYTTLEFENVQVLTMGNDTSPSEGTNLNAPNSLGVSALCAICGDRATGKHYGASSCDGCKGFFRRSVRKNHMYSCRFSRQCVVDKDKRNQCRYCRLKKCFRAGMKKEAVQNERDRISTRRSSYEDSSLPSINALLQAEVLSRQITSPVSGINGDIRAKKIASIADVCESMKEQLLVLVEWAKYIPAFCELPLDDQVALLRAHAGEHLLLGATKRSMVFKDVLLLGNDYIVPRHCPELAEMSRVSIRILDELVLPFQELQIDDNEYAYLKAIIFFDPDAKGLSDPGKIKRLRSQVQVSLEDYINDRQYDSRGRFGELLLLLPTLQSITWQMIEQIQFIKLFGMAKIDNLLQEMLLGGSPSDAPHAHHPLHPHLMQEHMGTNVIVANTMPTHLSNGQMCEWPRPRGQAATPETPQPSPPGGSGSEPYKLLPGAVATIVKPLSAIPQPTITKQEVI
# UCH37 inh – inhibitors of human UCH37 deubiquitinase, primary screen, biochemical, Ub-AMC cleavage, fluorescence; purified proteasome/UCH37; inhibition, % (test concentration not listed); 0.33% of 330,000 active;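 active means mean of two replicates above 20%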;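 further: 0% = compound-free wells with enzyme and 100% = wells lacking proteasome; stock transfer was 100 nL into about 20 µL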
# Target sequence (Q9Y5K5 whole entry, looked up): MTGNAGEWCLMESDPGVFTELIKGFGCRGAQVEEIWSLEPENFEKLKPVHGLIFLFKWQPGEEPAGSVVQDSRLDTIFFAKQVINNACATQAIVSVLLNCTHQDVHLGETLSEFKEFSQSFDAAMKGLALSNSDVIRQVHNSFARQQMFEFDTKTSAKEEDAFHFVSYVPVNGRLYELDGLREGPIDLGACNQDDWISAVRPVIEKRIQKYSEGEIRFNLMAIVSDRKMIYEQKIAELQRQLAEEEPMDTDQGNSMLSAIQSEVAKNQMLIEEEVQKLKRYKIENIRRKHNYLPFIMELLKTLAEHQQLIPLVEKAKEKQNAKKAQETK
#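 system = Proteasome-associated human UCH37 deubiquitinase | amount = 0.15 nM proteasome as dispensed | medium = pH 7.4 Tris-HCl (50 mM) with ovalbumin, ATP-MgCl2, DTT | incubation = 30 min preincubation with enzyme, 25 min cleavage at room temperature | detection = AMC fluorescence 355/460 nm | read-out basis = percent inhibition | controls = no-proteasome and no-compound wells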
# rRNA inh HTS OD600 – recorded beside rRNA inh HTS, whose call it bears; OD600 change, %; measured here: OD600 growth;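 optical density of the mix in the first replicate; 0 = DMSO median and -100 = no signal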
# rRNA inh HTS RFP – recorded beside rRNA inh HTS, whose call it bears; RFP signal change, %; measured here: RFP humanized mutant strains;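 first replicate; 0 = DMSO median and -100 = no signal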
# Active calls of the source: *; i = inactive; / = no result given. Not all compounds are listed; count on the stated rates, not on these rows.
SMILES	ALR inh	rRNA inh HTS	rRNA inh HTS OD600	rRNA inh HTS RFP	B2AR ag	E coli growth	FGF22 binding	HNF4A DNA FP	UCH37 inh
O=C(O)CN=CC1=C(O)CC(c2ccccc2)CC1=O (configuration not stated)	-11	1	11	-1.1	6	0.67	i	-6.2	3.6
Cc1cc(C)cc(NC(=O)COC(=O)CCC2CCCC2)c1	/	-5	-9	5.3	15	0.66	i	1.9	-0.1
O=C(Nc1ccnc(-c2cccnc2)n1)c1ccc(F)cc1	-7	/	/	/	/	0.7	/	/	0.4
CC(C)(C)c1ccc(C(=O)Nc2cccc([N+](=O)[O-])c2)cc1	-1	/	/	/	0	0.65	/	0.1	3.0
CCOc1ccccc1C(=O)NC1CC2CCCC(C1)N2Cc1ccccc1 (configuration not stated)	1	/	/	/	-22	0.72	/	1.0	4.4
O=C(Nc1ncccn1)c1cc(-c2cccc(Br)c2)nc2ccccc12	-6	/	/	/	-7	0.7	/	3.3	4.9
CCOC(=O)c1[nH]c(C)c(C(=O)N(C)Cc2ccccc2)c1C	-4	/	/	/	1	0.71	/	-1.9	3.7
O=c1c2c([N+](=O)[O-])cc([N+](=O)[O-])cc2sn1-c1ccc(Br)cc1	-7	/	/	/	-1	/	/	-4.8	/
CCC(=O)n1nc(-c2ccccc2)nc1NCc1ccccc1	-2	-3	-10	-2.2	-11	0.72	/	-2.5	5.1
COc1ccccc1C(=O)Nc1ccc(OCC(=O)N2CCCCC2C)cc1 (configuration not stated)	/	-10	-8	-0.1	-3	0.66	i	2.8	0.9
CC1CN(C(=O)c2ccc(NS(=O)(=O)c3ccc(F)c(F)c3)cc2)CC(C)O1 (configuration not stated)	1	15	9	3.8	-4	0.62	i	1.1	1.3
COc1ccc(C(C)=O)cc1COC(=O)CNC(=O)c1ccc(F)cc1	-3	/	/	/	0	0.73	/	-4.3	0.6
CCOC(=O)c1c(S(=O)(=O)N2CCN(Cc3ccccc3)CC2)c(C)n(C)c1C	-6	10	0	-3.1	-8	0.72	i	0.6	-3.6
Cc1nccn1CC(O)COC1CCCCC1 (configuration not stated)	2	/	/	/	-4	0.73	/	-1.5	3.7
C(=N\N1CCN(c2ccccn2)CC1)/C1=C(N2CCOCC2)C(=C/c2ccccc2)/CC1	48	-6	-4	-0.6	7	/	i	-1.6	/
Cc1cccc(N=CC=C2OC(C)(C)C(C)(C)O2)c1	/	14	10	0.5	-10	0.7	i	1.3	-44
CC(C)(C)C(=O)NNC(=O)c1cc2sccc2s1	-6	5	5	-1.3	4	0.69	i	5.6	1.9
Cc1ccc2cc(C#N)c(N3CCCC3)nc2c1C	0	/	/	/	10	0.77	/	3.0	-16
Cc1ccc2nc3c(cc(C(=O)NCc4ccco4)c(=N)n3Cc3ccco3)c(=O)n2c1	13	11	-3	-5.1	4	0.76	i	-7.9	-20
Cc1ccc(CC2SC(=O)NC2=O)cc1Cl (configuration not stated)	/	/	/	/	6	0.7	/	0.3	1.4

# Further structures follow.
SMILES	ALR inh	rRNA inh HTS	rRNA inh HTS OD600	rRNA inh HTS RFP	B2AR ag	E coli growth	FGF22 binding	HNF4A DNA FP	UCH37 inh
Cc1cccc(N/C=C/c2onc(C)c2[N+](=O)[O-])c1	/	/	/	/	6	/	/	3.0	4.6
CC(Sc1ccccn1)C(=O)Nc1ccc(S(N)(=O)=O)cc1 (configuration not stated)	-1	/	/	/	-5	0.73	/	0.3	-0.9
Cc1ccc(S(=O)(=O)NNC(=O)C2CCCCC2)cc1	30	5	2	0.1	5	0.67	i	1.5	2.9
CCNC(=O)C1CCCN(C(=O)c2ccc(C)c(F)c2)CC1 (configuration not stated)	/	8	8	0.9	/	/	i	-3.1	/
O=C1N(Cc2cccc(Cl)c2)C[C@@H]2C[C@@H](c3cccn3-c3cccnc3)N3CCC[C@@]123	-17	-50	-78	-8.0	-4	0.7	/	-3.9	2.7
COc1cccc(CN2CCNC(=O)C2CC(=O)NCC(C)(C)N2CCOCC2)c1OC (configuration not stated)	-1	1	1	-2.9	5	0.68	i	-0.9	-2.6
O=C(Nc1nccs1)c1ccc(COc2c(F)c(F)cc(F)c2F)cc1	-6	7	0	1.5	-2	0.64	i	0.5	2.2
CCc1ccc2[nH]c(C(=O)Nc3ccc4c(c3)OCO4)cc2c1	17	-26*	-7.6*	-3.0*	13	0.65	i	4.2	-9.2
COc1cc2c(=O)n(CCC(=O)NCC3CCCO3)c(=O)n(CC(=O)Nc3ccc(C)c(C)c3)c2cc1OC (configuration not stated)	-4	/	/	/	-5	0.64	i	1.9	-2.6
Cc1ccc([C@H]2C(C(=O)O)=CCN2S(=O)(=O)c2ccc(C)cc2)cc1	/	-2	7	-0.3	/	/	i	1.0	/
CCOC(=O)c1sc(NC(=O)C(CC)Sc2nnc3c4ccccc4n(CC)c3n2)nc1C (configuration not stated)	-8	7	5	3.1	-1	0.72	i	2.7	-0.8
CCC(C)N(CC(=O)NCc1ccc(OC)cc1)C(=O)c1csnn1 (configuration not stated)	-20	/	/	/	-3	0.71	/	4.1	0.7
CC/C(=N\O)c1ccc(O)c(OC)c1	99*	/	/	/	2	/	/	-1.6	/
O=C(CSc1ncccc1C(=O)O)NCCC1=CCCCC1	-4	/	/	/	0	0.74	/	0.1	-1.2
Nc1nonc1-n1nnc(C(=O)N/N=C/c2ccc(OCc3cccc(Cl)c3)cc2)c1CN1CCCCC1	0	-2	11	0.3	-5	/	i	2.1	/
CCOc1ccc(C(=O)NC(=S)Nc2ncccc2C)cc1[N+](=O)[O-]	-2	/	/	/	-21	0.7	/	-0.3	3.7
C[C@@H](NC(=O)c1nc[nH]c1C(=O)N1CCN(C(=O)OC(C)(C)C)CC1)c1ccccc1	-7	-1	1	-7.3	0	/	i	-4.4	1.8
O=C(CCCNC(=O)c1ccc(Cl)cc1)NCc1ccccc1F	10	1	-1	-4.1	-2	0.65	i	1.3	4.4
Clc1ccc(CSc2nnc(-c3ccncc3)o2)c(Cl)c1	-7	/	/	/	-3	0.68	/	4.4	2.0
CCN(CCO)C(=S)Nc1cc(C(=O)OC)ccc1C(=O)OC	-15	/	/	/	6	0.68	/	1.9	-1.4

# An excerpt of these results, with values under each structure:
# Screens in order: ALR inh	rRNA inh HTS	rRNA inh HTS OD600	rRNA inh HTS RFP	B2AR ag	E coli growth	FGF22 binding	HNF4A DNA FP	UCH37 inh
- Cc1ccc(S(=O)(=O)NNC(=O)C2CCCCC2)cc1
    30	5	2	0.1	5	0.67	i	1.5	2.9
- CCNC(=O)C1CCCN(C(=O)c2ccc(C)c(F)c2)CC1 (configuration not stated)
    /	8	8	0.9	/	/	i	-3.1	/
- O=C1N(Cc2cccc(Cl)c2)C[C@@H]2C[C@@H](c3cccn3-c3cccnc3)N3CCC[C@@]123
    -17	-50	-78	-8.0	-4	0.7	/	-3.9	2.7
- COc1cccc(CN2CCNC(=O)C2CC(=O)NCC(C)(C)N2CCOCC2)c1OC (configuration not stated)
    -1	1	1	-2.9	5	0.68	i	-0.9	-2.6

# Following part.
SMILES	ALR inh	rRNA inh HTS	rRNA inh HTS OD600	rRNA inh HTS RFP	B2AR ag	E coli growth	FGF22 binding	HNF4A DNA FP	UCH37 inh
COc1ccc(-c2cnc(C(O)c3ccccc3)[nH]2)cc1 (configuration not stated)	/	5	-3	1.0	/	/	i	-5.2	/
CC(=O)N1CCC(N(C(=O)Nc2ccc(C)c(C)c2)C2CCCC2)CC1	-5	/	/	/	0	0.68	/	1.2	5.4
S=C(NCC1CCCO1)NC12CC3CC(CC(C3)C1)C2 (configuration not stated)	-3	18	10	1.1	-4	0.67	i	2.1	1.7
Oc1c(N=Nc2ccccn2)ccc2ccccc12	-13	/	/	/	15	0.75	/	9.3	5.5
CC(C)OCCCNC(=O)c1sc(=S)n(C)c1N	/	/	/	/	-28	0.7	/	0.1	8.6
O=C(Nn1c(-c2ccccc2)nc2ccccc2c1=O)C1CCC1	0	/	/	/	-2	0.69	/	-1.8	5.9
CC(C)N(C(C)C)S(=O)(=O)c1ccc(Cl)nc1	3	2	1	-3.0	1	0.72	i	5.2	7.3
Cc1cccc(C)c1NC(=O)C(c1ccc(C(F)(F)F)cc1)n1c(=O)c(-c2cc3ccccc3[nH]2)nc2ccccc21 (configuration not stated)	/	11	17	-0.5	/	/	i	-6.2	/
COC(=O)[C@@]12C[C@@H](CC(=O)NCCCN3CCCC3=O)C(=O)N(Cc3ccc4c(c3)OCO4)C1=CCC(C)(C)C2	/	4	6	6.1	/	/	i	-1.1	/
COc1ccc(-c2cc(C(=O)Nc3c(C)nn(Cc4ccc(Cl)cc4)c3C)no2)cc1	-1	/	/	/	0	0.69	/	2.1	6.3
CCn1nnnc1SCC(=O)NC1Cc2ccccc2C1	23	3	4	-2.2	-3	0.67	i	-9.1	4.6
CCOC(=O)C1(Cc2cccc(F)c2)CCN(C(=O)Cc2cccnc2)CC1	-28	1	-4	1.9	-1	0.67	i	5.8	2.8
Cc1cccc([N+](=O)[O-])c1NC(=O)CSc1nnc2ccccn12	-3	10	12	3.9	2	0.71	i	-0.7	0.2
CN(C)S(=O)(=O)n1cc(/C=C(\NC(=O)c2ccccc2F)C(=O)NCCN2CCOCC2)c2ccccc21	/	4	5	1.2	/	/	i	-2.9	/
Cc1ccc(CN2CCC(n3nccc3NC(=O)C3CCOC3)CC2)cc1C (configuration not stated)	-1	1	14	-0.4	-4	0.71	i	1.1	4.7
CCOc1ccc(/C=C(\C#N)C(=O)NCC2CCCO2)cc1OCC (configuration not stated)	-2	-13	-14	-1.8	-3	0.62	i	1.6	3.3
CCc1cccc(NC(=O)CCC(=O)N2CCSc3ccccc32)c1	0	-24*	-36*	3.4*	-7	0.72	i	1.5	5.8
O=C(OCc1cccc(F)c1)c1ccc2c(=O)n3c(nc2c1)CCC3	/	-24*	-19*	-0.8*	8	0.71	i	1.3	-12
O=C(NC(=O)N1CCCCCC1)c1ccccc1	-3	12	17	0.1	0	0.66	i	1.1	2.2
C[C@@H]1NC(=O)N[C@@H]1CCCCCC(=O)O	-10	/	/	/	-7	/	i	-1.6	0.0

# New compounds follow.
SMILES	ALR inh	rRNA inh HTS	rRNA inh HTS OD600	rRNA inh HTS RFP	B2AR ag	E coli growth	FGF22 binding	HNF4A DNA FP	UCH37 inh
CCN(C[C@H]1N[C@@](CC)(C(=O)OC)[C@H]2C(=O)N(Cc3ccccc3)C(=O)[C@@H]12)S(=O)(=O)c1ccc(F)cc1	-1	-5	-14	2.7	-11	0.71	i	-3.1	0.8
O=C(CSc1ncccn1)Nc1ccc(N2CCOCC2)cc1	/	/	/	/	2	0.79	/	0.1	3.9
Cc1ccccc1NC(=S)NC1CCCC1	1	9	4	-0.8	-2	0.63	i	-1.0	-0.7
Cc1ccc2c(c1)C1CC(C)(O2)N(c2cccc(C(=O)NC3CCN(Cc4ccccc4)CC3)c2)C(=O)N1 (configuration not stated)	-6	-3	-7	0.8	15	0.68	i	-2.3	2.3
Cc1ccccc1C(=O)Oc1cccc(Nc2ncnc3ccccc23)c1	-2	/	/	/	-5	0.73	/	-0.9	-45
Cc1cc(C)n(-c2nnc(N3CCN(c4ccc(F)cc4)CC3)nn2)n1	-5	3	8	-0.6	10	0.67	i	-2.5	3.3
Cc1nc2ccccc2c2oc(C(=O)N3CCC(N4CCCCC4)CC3)cc12	-7	/	/	/	-9	0.75	/	16	2.7
COc1ccc(NC(=O)CSc2nc(C)cs2)c([N+](=O)[O-])c1	-9	-11	-3	3.2	5	0.7	i	8.2	5.1
